Screens: PubChem BioAssay, ICCB-Longwood Screening Facility, Harvard Medical School
Bm FixLJ act – activators of Burkholderia fixLJ two-component system, primary screen, B. multivorans, GFP reporter; B. multivorans fixK-promoter GFP reporter, 18 h; active compounds read high; z-score (concentration not given with the values); 29,000 compounds, 0.3% hits; AID 1918990, 2023;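 active means replicate mean overnight rise in green fluorescent reporter signal, 3 or more SD over negative controls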;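 further: score is relative to vehicle wells of the plate; 300 nL library stock went into each well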
* marks the source's active call; other numbers are inactive results; & = joins results of further samples. These rows are one share of the data; count on the stated rates, not on these rows.

Start of the data: the first five entries as a preview:
compound	Bm FixLJ act
Cc1cccc(NC(=O)c2ccc(N(Cc3ccccc3)S(C)(=O)=O)cc2)c1	0.2
CCOC(=O)COc1ccc(C2C(C(=O)OC)=C(C)NC3=C2C(=O)c2ccccc23)cc1Cl (stereo unspecified)	4.1*
O=C(COCC1CCCO1)N1CCC(c2[nH]ncc2-c2ccccc2)CC1 (stereo unspecified)	-1.2
COc1ccc(CCN2C(=O)c3oc4cc(C)cc(C)c4c(=O)c3C2c2ccc(F)cc2)cc1OC (stereo unspecified)	-2
CCc1nn(CC(=O)NCc2ccccc2Cl)c(=O)c2cc3ccccc3n12	-1.7

The list itself, previewed entries included:
compound	Bm FixLJ act
Cc1cccc(NC(=O)c2ccc(N(Cc3ccccc3)S(C)(=O)=O)cc2)c1	0.2
CCOC(=O)COc1ccc(C2C(C(=O)OC)=C(C)NC3=C2C(=O)c2ccccc23)cc1Cl (stereo unspecified)	4.1*
O=C(COCC1CCCO1)N1CCC(c2[nH]ncc2-c2ccccc2)CC1 (stereo unspecified)	-1.2
COc1ccc(CCN2C(=O)c3oc4cc(C)cc(C)c4c(=O)c3C2c2ccc(F)cc2)cc1OC (stereo unspecified)	-2
CCc1nn(CC(=O)NCc2ccccc2Cl)c(=O)c2cc3ccccc3n12	-1.7
COc1ccc(-c2nc(CN3CCC(C(=O)NCc4ccccc4)CC3)c(C)o2)cc1OC	-0.86
CCN1CC(C(=O)NCc2cc(-c3ccccn3)no2)CCC1=O (stereo unspecified)	0.78
OCCN1CCOc2c(O)cc(-c3cccc(Cl)c3)cc2C1	0.42
CC1CCCCN1C1CN(C(=O)c2cccc(-c3ccc4cn[nH]c4c3)c2)C1 (stereo unspecified)	-3.9
COc1ccc(N(C)C(=O)Cn2cc(S(=O)(=O)N3CCN(c4ccccc4F)CC3)c3ccccc3c2=O)c(OC)c1	0.48
O=C(NCc1ccccc1)c1ccc2c(c1)N(Cc1ccccc1F)C(=O)c1ccccc1S2=O (stereo unspecified)	0.26
Cc1ccccc1-c1noc(CSc2nc3ccccc3[nH]2)n1	-1.5
Cc1cc(C(C)(C)C)c(O)c(C)c1CC1=NCCN1	-1.4&-0.45
Cc1cc(C)c(NC(=O)Cn2c(=O)oc3cc(S(=O)(=O)N4CCCCCC4)ccc32)c(C)c1	-2.3
CC1CCC(NC(=O)C2(C)Cc3ccccc3C(=O)N2Cc2ccccc2Cl)CC1 (stereo unspecified)	-1.1
COc1cc(C2CC(=O)N(CC(=O)Nc3ccccc3F)c3ccccc3S2)cc(OC)c1OC (stereo unspecified)	-0.51
CCC1(c2ccc(N)cc2)CCC(=O)NC1=O (stereo unspecified)	-0.8&-0.43
O=C(C1CCOC1)N1CCCN(c2nnnn2-c2ccccc2)CC1 (stereo unspecified)	-1.1
CN1CC2(CCN(C(=O)Cn3ccc4ccccc43)CC2)OC1=O	0.67
CCCCCc1nc2ccccc2c(=O)n1-c1ccc(C)cc1	0.01
CC(C(=O)Nc1nccs1)N1CCCN(S(C)(=O)=O)CC1 (stereo unspecified)	1.1
COc1ccc(-c2cc3nccc(-c4cc(Cl)c(C)cc4O)n3n2)cc1	-0.08
O=C(NCc1ccccc1Cl)c1ccc(CS(=O)(=O)c2ccc(Br)cc2)o1	0.19
CC(C)(O)CCc1cccc(C(=O)N2CCC(C#N)CC2)c1	-0.07
C[C@H]1O[C@@H](O[C@H]2[C@@H](O)C[C@H](O[C@H]3[C@@H](O)C[C@H](O[C@H]4CC[C@]5(C)C6CC[C@]7(C)[C@@H](C8=CC(=O)OC8)CC[C@]7(O)C6CC[C@@H]5C4)O[C@@H]3C)O[C@@H]2C)C[C@H](O)[C@@H]1O (stereo partly specified)	-0.51
CCCCN(CC)CCCNC(=O)c1cc2c(=O)[nH]c3ccccc3c2s1	-1.4
Cc1cc(CN(C)C(=O)c2coc(COc3ccc4sc(C)nc4c3)n2)n[nH]1	-0.3
O=C(Cn1nc(Cc2cccnc2)c2ccccc2c1=O)Nc1ccc(F)c(Cl)c1	-1.3
CCc1nc(C)c(C(=O)NC(c2cnc3ccccc3c2)C2CC(O)C2)s1 (stereo unspecified)	-1.6
O=C(CNCCN1CCCOC1=O)NC1CCCCCCC1	-2
CC(C)OCCCN1C(=O)c2[nH]nc(-c3ccccc3O)c2C1c1ccc(OCc2ccccc2)cc1 (stereo unspecified)	0.36
Cc1ccccc1Oc1nc2c(c(=O)n(C)c(=O)n2C)n1Cc1ccc(Br)cc1	-0.02
COC(=O)Cc1cc(C2CCN(C(=O)c3nc4c(s3)CCCC4)CC2)n[nH]1	-0.32
Cc1ccc(NC(=O)Cn2cc3c(n2)CCCCC3)cc1	-1.2
CC(C)(C)c1ccc(C(=O)N2CCCC(c3nc4c(nnn4Cc4cccc(F)c4)c(=O)[nH]3)C2)cc1 (stereo unspecified)	0.36
CCCc1cc(=O)[nH]c(Nc2ccc(O)cc2C)n1	0.38
CCN(CC)CCNc1ccc(CO)c2sc3ccccc3c(=O)c12	-0.64
CCOc1cc(C(c2c(C)[nH]n(-c3ccccc3)c2=O)c2c(C)[nH]n(-c3ccccc3)c2=O)ccc1O	3.3*
CCN(CC)CCCNC(=O)CCc1c(C)n(CC)c2cc(-c3ccccc3OC)nn2c1=O	-0.73
CCCCN(Cc1ccccc1C)C(=O)c1ccc(-n2cnnc2)nc1	-2.3
CN1CC(N)CC1C(=O)N1CCC2(CC1)Nc1ccccc1NC2=O (stereo unspecified)	-0.74
COCC(C)NC(=O)C1CCN(C(=O)c2cnc3ccccn3c2=O)CC1 (stereo unspecified)	-1.6
CCOC(=O)CC(NC(=O)CCc1c(C)nc2cc(-c3ccccc3)nn2c1C)c1ccc(C)cc1 (stereo unspecified)	0.7
CN1CCN(C2=Nc3ccccc3Sc3ccc(Cl)cc32)CC1	-1.4
Cn1ccnc1CN1CC2CCC(C1)C2NC(=O)c1ccc2ncccc2c1 (stereo unspecified)	-0.31
Cc1ccc(C)c(Cn2c3ccccc3c3cnn(CC(=O)NCCc4ccccc4)c(=O)c32)c1	0.04
CCn1c(C)cc2cc(NC(=O)CCN3CCCC3=O)ccc21	-1.7
O=C(c1cccc(-c2ccc3c4c(cccc24)CC3)c1)N(CCO)CCO	0.47
Cc1ccc(-c2nc(N3CCN(c4ccccc4Cl)CC3)c3ccccc3n2)cc1	0.27
COc1ccc(Cc2nc3c4cnn(-c5ccccc5Br)c4ncn3n2)cc1	0
Nc1nonc1-c1nc2ccccc2n1CC(=O)Nc1cccc(Cl)c1Cl	-0.96
NC(N)=N/N=C/c1c(Cl)cccc1Cl	0.11
CCc1c(C)nc2nncn2c1Nc1ccc(C(C)C)cc1	-0.55
COC(=O)C1=C(CS(=O)(=O)c2cc(Cl)ccc2OC)NC(=O)NC1c1ccccc1 (stereo unspecified)	-0.86
COc1ccc(C(=O)N2CCN(C(=O)COc3ccccc3)CC2)cc1OC	-3.3
O=C(NCCCc1nc2ccccc2n1Cc1ccccc1)C1CCCCC1	-1.5
CCCSc1oc(-c2ccco2)nc1S(=O)(=O)c1ccc(Cl)cc1	1.3
CCOc1ccc(C(=O)NC2CCCC(NC(=O)c3cnc(C)nc3)C2)cc1 (stereo unspecified)	2.3
Cc1cccc(N2CCN(C(=O)C3CCN(C(=O)c4cc5sccc5n4C)CC3)CC2)c1C	-0.17
CC(C(O)c1ccc(O)cc1)N1CCC(Cc2ccccc2)CC1 (stereo unspecified)	-1.3

Quoted at random: seven records from the list
compound	Bm FixLJ act
O=C(C1CCOC1)N1CCCN(c2nnnn2-c2ccccc2)CC1 (stereo unspecified)	-1.1
NC(N)=N/N=C/c1c(Cl)cccc1Cl	0.11
CCc1nn(CC(=O)NCc2ccccc2Cl)c(=O)c2cc3ccccc3n12	-1.7
Nc1nonc1-c1nc2ccccc2n1CC(=O)Nc1cccc(Cl)c1Cl	-0.96
Cc1ccccc1Oc1nc2c(c(=O)n(C)c(=O)n2C)n1Cc1ccc(Br)cc1	-0.02
Cc1ccc(NC(=O)Cn2cc3c(n2)CCCCC3)cc1	-1.2
CN1CC(N)CC1C(=O)N1CCC2(CC1)Nc1ccccc1NC2=O (stereo unspecified)	-0.74

Continuation:
compound	Bm FixLJ act
Cc1cccc(N(CC(=O)N(C)Cc2ccccc2)S(=O)(=O)c2ccccc2)c1C	-1.8
Cc1ccc2c(=O)cc(C(=O)Nc3cccc(C(F)(F)F)c3)oc2c1C	-3.8
CC1=C(C(=O)OCC2CCCCC2)C(c2ccc(Cl)cc2Cl)CC(=O)N1 (stereo unspecified)	-0.65
O=C1[C@@H]2CSC(c3ccc(F)cc3)N2C(=O)N1c1ccc(Cl)cc1 (stereo partly specified)	-0.7
Cc1ccc2oc(-c3ccc(Cl)c(NC(=O)c4cc5ccccc5o4)c3)nc2c1	-1.7
CNC(=O)CC1C(=O)NCCN1C(=O)c1ccc(-c2ccc(C)nc2N)cc1 (stereo unspecified)	0.29
NC(=O)C1Cc2ccccc2CN1C(=O)c1cnc(-c2ccccn2)[nH]c1=O (stereo unspecified)	-2
O=C(c1cccnn1)N1CCOc2c(O)cc(-c3ccc(Cl)cn3)cc2C1	0.55
CCOc1ccc(CCNC(c2nnc(-c3ccccc3)o2)c2ccccc2Cl)cc1OCC (stereo unspecified)	2.6
O=C(Nc1ccccc1F)c1oc2ccccc2c1NC(=O)c1c(F)cccc1F	-0.93
CCN1CCN(c2cc(C)c3cc(NC(=O)/C=C/c4ccc(OCCC(C)C)cc4)ccc3n2)CC1	0.76
Cc1cc(CC(=O)N2CCCN(C(=O)CCc3cn[nH]c3)CC2)on1	-0.24
CCOC(=O)C1CCN(CCC(=O)Nc2ccccc2Cl)CC1	0.42
CCOc1ccc(-c2nc3cc(NC(=O)COc4cccc(C)c4)ccc3o2)cc1	2.3
C[C@H]1O[C@H](OC2[C@@H](O)[C@@H](O)C(O)[C@H](O)[C@H]2O)[C@@H](N)C[C@@H]1N=C(N)C(=O)O (stereo partly specified)	0.53
Cc1n[nH]c(C)c1-c1ccc(C(=O)N2CCCN3CCCC3C2)cc1 (stereo unspecified)	-0.05
COc1ccccc1Nc1nc(-c2ccccc2Cl)c2cc(Br)ccc2n1	-0.28
CCC(NC(=O)c1oc(COc2ccccc2)cc1C)c1nc(C)no1 (stereo unspecified)	-0.13
Cc1nc(=O)[nH]c(C)c1CCC(=O)NCc1csc(-c2cnccn2)n1	-0.5
COc1ccc(C)cc1S(=O)(=O)N1CCC[C@@]2(CCCC2OC)C1 (stereo partly specified)	1.2
CN(C)C(=O)C1(C)CCN(C(=O)c2cccn3cnnc23)CC1	-1.5
Cc1[nH]c2ccccc2c1C1(O)C(=O)N(Cc2ccccc2)c2ccc(Br)cc21 (stereo unspecified)	-1.6
Cc1noc(C)c1CN1CCc2c(C(=O)NC(C)(C)C)csc2C1	-0.21
COC1CN(C(=O)c2csc3ccccc23)CC1Cc1cc(C)no1 (stereo unspecified)	-1.1
Cc1ccc(C(=O)Nc2ccc(OCc3cc(=O)n4c(C)csc4n3)cc2)cc1	-1.5
COCCCNC(=O)Cn1c(=O)n(-c2ccc(Cl)cc2)c(=O)c2c3c(sc21)CCCCC3	-1
CC(=O)NCc1cc2n(n1)CCN(Cc1ccc(Cn3cccn3)cc1)C2	-1
CCN(Cc1nc(-c2cccc(C)c2)no1)S(=O)(=O)c1ccc(C)cc1	0.75
COC(=O)c1ccc2nc(C)cc(Nc3ccc(O)cc3)c2c1	-2.4
Cc1c(F)cccc1NC(=O)C1CCCN1S(=O)(=O)c1ccc(F)cc1 (stereo unspecified)	-0.76
O=C(NCCCn1ncc2ccccc21)N1CCN(Cc2cccs2)CC1	-0.18
COc1ccc(NC(=O)CSc2nc(-c3ccco3)cc(C(F)(F)F)n2)cc1Cl	-2
C[C@]12C=CC(=O)C=C1CC[C@H]1[C@@H]3C[C@@H](O)[C@](O)(C(=O)CO)[C@@]3(C)C[C@H](O)[C@@]12F	-2.3
Cc1cc2oc(C(=O)N(Cc3ccc(Cl)cc3)Cc3ccco3)c(C)c2cc1Cl	-0.81
Cc1nn(CCNC(=O)c2ccccc2-n2cnnc2)c(C)c1Cl	-0.39
COc1ccc(-c2noc(CSc3nnc(C)n3-c3ccc(C)cc3)n2)cc1OC	-0.96
COc1cc(/C=C/c2nc(C#N)c(N3CCCCC3)o2)cc(OC)c1OC	2.3
O=S(=O)(c1ccc(-c2csc(=Nc3ccc(F)cc3)n2CCCCCCO)cc1)N1CCCC1	1.3
COc1cc(NC(=O)CN(c2ccc(C)cc2)S(=O)(=O)c2cccc3nonc23)cc(OC)c1	-0.15
COc1cccc(NC(=O)Cn2c(=O)n(CCC(=O)NCc3ccccc3OC)c(=O)c3ccccc32)c1	0.46
Cc1c(Cl)cccc1NC(=O)C1CCCN(c2nnc(-n3c(C)ccc3C)s2)C1 (stereo unspecified)	-0.31
CCc1ccc(NC(=O)C2CCCN2S(=O)(=O)c2ccc3c(c2)n(C)c(=O)c(=O)n3C)cc1 (stereo unspecified)	-0.01
COCCn1ccnc1C1CCCN(C(=O)c2ccc3c(c2)ncn3C)C1 (stereo unspecified)	-0.48
O=C1c2oc3ccccc3c(=O)c2C(c2cccc(O)c2)N1Cc1ccc(F)cc1 (stereo unspecified)	-0.08
CN(CC1Cc2ccccc2CN1C)C(=O)CCC(=O)Nc1ccc2c(c1)CCC2 (stereo unspecified)	0.6
CS(=O)(=O)Cc1ccc(CCC2COc3ccccc3O2)nc1 (stereo unspecified)	1.4
COc1ccc(Oc2nc3c(C)cccn3c(=O)c2/C=C(\C#N)c2nc3ccccc3[nH]2)cc1	-1.1
CCOc1ccc(NC(=O)c2sc3nc4c(cc3c2N)CN(Cc2ccccc2)CC4)cc1	-0.9
